UUG fidelity – alters start codon recognition fidelity in yeast; S. cerevisiae UUG-firefly luciferase reporter, luminescence/redox ratio; activity score, % at 18.7 µM; hit rate 0.13% among 350,000; AID 602363;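 active = replicate mean at a twofold rise or more, about +100% in these data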;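 also: firefly luciferase made from a UUG start codon reports start codon fidelity; reporter light over untreated wells divided by growth signal over untreated wells; some hits fall short of that in this replicate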
HIV Env fusion – inhibitors of HIV Env-mediated cell fusion | HeLa-JRFL Env/CEM21 cell fusion, luciferase | inhibition, % at 12.3 µM | hit rate 1.1% among 360,000 | AID 651610;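 active = mean replicate inhibition score of at least 50 and every replicate individually at or above 50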;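 also: 0% = plate neutral controls and 100% = maraviroc near 300 nM; one replicate is shown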
Starred values were filed as active, the others as inactive; [ ] = another dose, or the depositor's remark. Not all compounds are listed; the hit share may differ from the screen's.

SMILES	UUG fidelity	HIV Env fusion
O=C(C[C@@H]1CC[C@@H](NC(=O)C2CCC2)[C@H](CO)O1)NC1CCC1	-7	-27[16.7 µM]
Cc1noc(C)c1NC(=O)N(C)C[C@H]1Oc2ccc(NS(=O)(=O)c3ccccc3)cc2CC(=O)N([C@@H](C)CO)C[C@@H]1C	7	12[16.7 µM]
C[C@@H]1CN([C@H](C)CO)C(=O)c2cc(NC(=O)Cc3ccccc3)ccc2O[C@@H](C)CCCCO[C@@H]1CN(C)C(=O)Nc1cccc2ccccc12	-1	-60[16.7 µM]
C/C=C/c1cnc2c(c1)C(=O)N([C@@H](C)CO)C[C@@H](C)[C@@H](CN(C)Cc1ccc(F)cc1)O2	21	-3[16.7 µM]
C[C@@H]1CN([C@H](C)CO)C(=O)c2cc(NS(=O)(=O)c3ccc(Cl)cc3)ccc2O[C@@H](C)CCCCO[C@@H]1CN(C)C(=O)c1ccccc1	6	-17[16.7 µM]
COCC#Cc1cnc2c(c1)C(=O)N([C@@H](C)CO)C[C@H](C)[C@@H](CN(C)C(=O)NC1CCCC1)O2	0	15[16.7 µM]
C[C@H]1CN([C@@H](C)CO)C(=O)Cc2cc(NS(=O)(=O)c3cccs3)ccc2O[C@H]1CN(C)C(=O)Nc1ccccc1	2	-12[16.7 µM]
CCS(=O)(=O)Nc1ccc2c(c1)C(=O)N(C)C[C@@H](OC)[C@@H](C)CN(C(C)=O)[C@@H](C)CO2	10	-10[16.7 µM]
C[C@@H]1CCCCO[C@@H](CN(C)Cc2ccc3c(c2)OCO3)[C@@H](C)CN([C@@H](C)CO)C(=O)c2cc(NS(C)(=O)=O)ccc2O1	-4	-2[16.7 µM]
C[C@@H]1CN([C@@H](C)CO)C(=O)CCCn2cc(nn2)CO[C@@H]1CN(C)C(=O)Nc1ccnc(N2CCOCC2)c1	-3	7[16.7 µM]
O=C(CCN1CCCCC1)N[C@@H]1CC[C@H](CCn2cc(-c3cccc(F)c3)nn2)O[C@@H]1CO	-10	25[16.7 µM]
C[C@@H]1CN([C@H](C)CO)C(=O)c2cccc(NC(=O)c3nc4ccccc4s3)c2O[C@@H]1CN(C)Cc1ccccc1	14	-26[16.7 µM]
CCCNC(=O)N(C)C[C@H]1Oc2cc(Br)ccc2S(=O)(=O)N([C@@H](C)CO)C[C@H]1C	59	24[16.7 µM]
COc1ccc(S(=O)(=O)N(C)C[C@H]2Oc3ccc(NC(=O)NC(C)C)cc3CC(=O)N([C@H](C)CO)C[C@H]2C)cc1	36	-1[16.7 µM]
O=C(Cc1ccncc1)NCC[C@@H]1CC[C@H](NC(=O)Nc2cccc(F)c2)[C@H](CO)O1	11	2[16.7 µM]
C[C@@H]1CN([C@@H](C)CO)S(=O)(=O)c2ccc(-c3cccc(C#N)c3)cc2O[C@H]1CN(C)C(=O)c1ccc(F)cc1	9	-2[16.7 µM]
C[C@H]1CN([C@@H](C)CO)C(=O)Cc2cc(NC(=O)Cc3ccccc3)ccc2O[C@H]1CN(C)Cc1ccc2c(c1)OCO2	18	12[16.7 µM]
COc1ccc(NC(=O)Nc2ccc3c(c2)CC(=O)N([C@H](C)CO)C[C@@H](C)[C@@H](CN(C)Cc2ccc(C(=O)O)cc2)O3)cc1	12	-6[16.7 µM]
O=C(C[C@H]1C[C@H]2c3cc(NC(=O)C4CCC4)ccc3O[C@H]2[C@H](CO)O1)NCCN1CCCCC1	-1	5[16.7 µM]
C[C@@H]1CN([C@@H](C)CO)C(=O)c2cccc(N(C)C)c2O[C@@H]1CN(C)S(C)(=O)=O	-8	-24[16.7 µM]
O=C(C[C@@H]1CC[C@@H](NC(=O)CC2CC2)[C@@H](CO)O1)NCc1ccc(-c2ccccc2)cc1	-22	-2[16.7 µM]
C[C@H](CO)N1C[C@H](C)[C@@H](CN(C)CC2CCCCC2)OCCCC[C@H](C)Oc2ccc(NC(=O)C3CCCCC3)cc2C1=O	10	-44[16.7 µM]
C[C@H]1CN([C@@H](C)CO)C(=O)Cc2cc(NS(C)(=O)=O)ccc2O[C@H]1CN(C)Cc1ccc(C(=O)O)cc1	-7	-45[16.7 µM]
C[C@@H]1CN([C@@H](C)CO)C(=O)c2cccc(NS(=O)(=O)c3ccc(Cl)cc3)c2O[C@H]1CN(C)Cc1ccccc1	6	-16[16.7 µM]
Cc1noc(C)c1NC(=O)N[C@@H]1CC[C@@H](CCNC(=O)C2CCCC2)O[C@H]1CO	3	12[16.7 µM]
COc1cccc(S(=O)(=O)N(C)C[C@@H]2Oc3ncc(C#CCN(C)C)cc3C(=O)N([C@@H](C)CO)C[C@H]2C)c1	11	9[16.7 µM]
O=C(NC1CCCCC1)N[C@@H]1CC[C@@H](CCNS(=O)(=O)c2ccc(F)cc2)O[C@H]1CO	12	-2[16.7 µM]
C[C@@H]1CN([C@@H](C)CO)C(=O)c2cc(NS(=O)(=O)c3ccc(F)cc3)ccc2O[C@@H](C)CCCCO[C@H]1CN(C)C	7	6[16.7 µM]
C[C@@H]1CN([C@H](C)CO)C(=O)c2cccc(NS(=O)(=O)c3ccc(Cl)cc3)c2O[C@@H]1CN(C)Cc1ccccc1	3	24[16.7 µM]
C[C@@H]1CN([C@H](C)CO)C(=O)c2cc(-c3cccc(F)c3)cnc2O[C@@H]1CN(C)CC1CCOCC1	12	3[16.7 µM]
CN1C(=O)c2cc(NC(=O)c3ccc(F)cc3)ccc2OC[C@H]2O[C@@H](CC(=O)N3CCOCC3)CC[C@H]21	3	7[16.7 µM]
C[C@@H]1CCCCO[C@@H](CN(C)C(=O)Nc2ccc(C(F)(F)F)cc2)[C@H](C)CN([C@@H](C)CO)C(=O)c2cc(NC(=O)Nc3ccc4c(c3)OCO4)ccc2O1	-6	-1[16.7 µM]
C[C@@H]1CN([C@H](C)CO)S(=O)(=O)c2ccc(C#Cc3ccncc3)cc2O[C@@H]1CN(C)C(=O)C1CCOCC1	-2	-42[16.7 µM]
C[C@@H]1CN([C@@H](C)CO)C(=O)c2cccc(NS(=O)(=O)c3cn(C)cn3)c2O[C@@H]1CN(C)Cc1ccc(C(F)(F)F)cc1	-7	-19[16.7 µM]
O=C(CCN1CCCCC1)N[C@@H]1CC[C@@H](CCNS(=O)(=O)c2ccc(Cl)cc2)O[C@H]1CO	-1	1[16.7 µM]
CC(C)CC#Cc1ccc2c(c1)O[C@@H](CN(C)C(=O)NC(C)C)[C@H](C)CN([C@@H](C)CO)S2(=O)=O	30	21[16.7 µM]
C[C@@H]1CCCCO[C@@H](CN(C)C(=O)Nc2ccccc2)[C@H](C)CN([C@H](C)CO)C(=O)c2cc(NS(=O)(=O)c3ccccc3)ccc2O1	2	-100[16.7 µM]
CC(C)C#Cc1ccc2c(c1)O[C@H](CN(C)C)[C@@H](C)CN([C@H](C)CO)S2(=O)=O	0	-7[16.7 µM]
Cc1noc(C)c1NC(=O)Nc1ccc2c(c1)C(=O)N([C@@H](C)CO)C[C@H](C)[C@@H](CN(C)C)OCCCC[C@@H](C)O2	-4	21[16.7 µM]
COc1ccc(NC(=O)N(C)C[C@H]2OCCCC[C@H](C)Oc3ccc(NS(=O)(=O)c4cccs4)cc3C(=O)N([C@@H](C)CO)C[C@H]2C)cc1	-8	13[16.7 µM]

Reprinted at random: 5 entries already listed
SMILES	UUG fidelity	HIV Env fusion
O=C(CCN1CCCCC1)N[C@@H]1CC[C@@H](CCNS(=O)(=O)c2ccc(Cl)cc2)O[C@H]1CO	-1	1[16.7 µM]
CC(C)C#Cc1ccc2c(c1)O[C@H](CN(C)C)[C@@H](C)CN([C@H](C)CO)S2(=O)=O	0	-7[16.7 µM]
C[C@@H]1CN([C@H](C)CO)S(=O)(=O)c2ccc(C#Cc3ccncc3)cc2O[C@@H]1CN(C)C(=O)C1CCOCC1	-2	-42[16.7 µM]
CC(C)CC#Cc1ccc2c(c1)O[C@@H](CN(C)C(=O)NC(C)C)[C@H](C)CN([C@@H](C)CO)S2(=O)=O	30	21[16.7 µM]
CN1C(=O)c2cc(NC(=O)c3ccc(F)cc3)ccc2OC[C@H]2O[C@@H](CC(=O)N3CCOCC3)CC[C@H]21	3	7[16.7 µM]

(listing goes on)
SMILES	UUG fidelity	HIV Env fusion
C[C@@H]1CN([C@@H](C)CO)C(=O)c2cc(-c3ccccc3F)cnc2O[C@H]1CN(C)C(=O)C1CC1	3	15[16.7 µM]
Cc1noc(C)c1NC(=O)N[C@@H]1CC[C@H](CCNC(=O)C2CCOCC2)O[C@H]1CO	-2	19[16.7 µM]
C[C@H]1CN([C@@H](C)CO)C(=O)Cc2cc(NC(=O)Nc3ccc4c(c3)OCO4)ccc2O[C@H]1CN(C)Cc1ccc(C(F)(F)F)cc1	-14	16[16.7 µM]
COCC(=O)N(C)C[C@H]1Oc2ncc(-c3cccc(OC)c3)cc2C(=O)N([C@H](C)CO)C[C@H]1C	11	1[16.7 µM]
O=C(Nc1ccccc1)Nc1ccc2c(c1)[C@@H]1C[C@H](CC(=O)N3CCOCC3)O[C@@H](CO)[C@@H]1O2	-8	-14[16.7 µM]
CCCC#Cc1ccc2c(c1)O[C@@H](CN(C)C(=O)Nc1ccc(OC)cc1)[C@H](C)CN([C@@H](C)CO)S2(=O)=O	0	-18[16.7 µM]
COc1ccc(CN(C)C[C@H]2OCCCC[C@H](C)Oc3ccc(NC(=O)CCC(F)(F)F)cc3C(=O)N([C@H](C)CO)C[C@@H]2C)cc1	-6	-15[16.7 µM]
C[C@@H]1CN([C@H](C)CO)C(=O)c2cc(NC(=O)C3CCCCC3)ccc2O[C@@H](C)CCCCO[C@H]1CN(C)Cc1ccc(C(=O)O)cc1	13	-1[16.7 µM]
C[C@H](CO)N1C[C@H](C)[C@@H](CN(C)Cc2ccncc2)Oc2ccc(NC(=O)C3CC3)cc2CC1=O	-11	-8[16.7 µM]
C[C@@H]1CN([C@H](C)CO)C(=O)c2cccc(NC(=O)C3CC3)c2O[C@H]1CN(C)CC1CCCCC1	0	56[16.7 µM]
CC(C)C(=O)Nc1ccc2c(c1)C(=O)N(C)[C@H]1CC[C@@H](CC(=O)O)O[C@@H]1CO2	-8	-11[16.7 µM]
C[C@H](CO)N1C[C@H](C)[C@@H](CN(C)S(C)(=O)=O)OCCCC[C@H](C)Oc2ccc(NC(=O)Cc3ccccc3)cc2C1=O	0	-17[16.7 µM]
C[C@@H]1CN([C@@H](C)CO)S(=O)(=O)c2ccc(C#C[C@@H](C)O)cc2O[C@H]1CN(C)CC1CCCC1	24	-52[16.7 µM]
Cc1ccc(-c2cnc3c(c2)C(=O)N([C@@H](C)CO)C[C@@H](C)[C@@H](CN(C)C)O3)cc1	-11	5[16.7 µM]
CC(=O)Nc1ccc2c(c1)C(=O)N(C)[C@@H]1CC[C@@H](CC(=O)NCC3CCCCC3)O[C@H]1CO2	-4	-2[16.7 µM]
C[C@@H]1CN([C@@H](C)CO)S(=O)(=O)c2ccc(C#C[C@@H](C)O)cc2O[C@@H]1CN(C)C(=O)c1ccccc1	3	15[16.7 µM]
COc1ccc(CN(C)C[C@H]2Oc3ccc(NC(=O)C4CCCCC4)cc3CC(=O)N([C@@H](C)CO)C[C@H]2C)cc1	-4	-39[16.7 µM]
CNC[C@H]1Oc2ccc(NC(=O)Nc3ccc(C(F)(F)F)cc3)cc2CC(=O)N([C@H](C)CO)C[C@H]1C	-2	8[16.7 µM]
C[C@H]1CN([C@@H](C)CO)C(=O)c2cc(N(C)C)ccc2O[C@H]1CN(C)C(=O)Nc1ccc2c(c1)OCO2	-1	15[16.7 µM]
C[C@@H]1CN([C@H](C)CO)C(=O)c2cc(-c3ccc(C#N)cc3)cnc2O[C@@H]1CN(C)C(=O)Nc1ccc(F)cc1	22	-9[16.7 µM]
Cc1ccc(-c2ccc3c(c2)O[C@@H](CN(C)Cc2cccc(C(=O)O)c2)[C@H](C)CN([C@@H](C)CO)S3(=O)=O)cc1	10	9[16.7 µM]
COc1ccc(NC(=O)N(C)C[C@@H]2Oc3ccc(NC(=O)Nc4ccc(C(F)(F)F)cc4)cc3C(=O)N([C@@H](C)CO)C[C@@H]2C)cc1	-11	-15[16.7 µM]
CO[C@@H]1CN(C)C(=O)c2cc(NS(C)(=O)=O)ccc2OC[C@@H](C)N(Cc2nccs2)C[C@@H]1C	0	7[16.7 µM]
C[C@H]1CN([C@@H](C)CO)C(=O)c2cc(/C=C/c3ccccc3)cnc2O[C@@H]1CN(C)Cc1ccccc1	-7	29[16.7 µM]
CN1C(=O)c2cc(NC(=O)C3CCCC3)ccc2OC[C@@H]2O[C@H](CC(=O)NCC3CC3)CC[C@H]21	9	11[16.7 µM]
CCC(=O)Nc1ccc2c(c1)C(=O)N(C)C[C@H](OC)[C@H](C)CN(C(=O)c1ccc(F)cc1)[C@H](C)CO2	4	0[16.7 µM]
C[C@H]1CCCCO[C@H](CN(C)C(=O)NC2CCCCC2)[C@@H](C)CN([C@@H](C)CO)C(=O)c2cc(N(C)C)ccc2O1	11	23[16.7 µM]
C[C@@H]1CCCCO[C@@H](CN(C)Cc2ccncc2)[C@H](C)CN([C@H](C)CO)C(=O)c2cc(NS(C)(=O)=O)ccc2O1	-3	13[16.7 µM]
C[C@@H]1CN([C@@H](C)CO)S(=O)(=O)c2ccc(C#Cc3ccccc3)cc2O[C@H]1CN(C)C	16	13[16.7 µM]
Cc1ccc(S(=O)(=O)N(C)C[C@@H]2Oc3ccc(NC(=O)Nc4c(C)noc4C)cc3C(=O)N([C@H](C)CO)C[C@H]2C)cc1	1	11[16.7 µM]
C[C@@H]1CN([C@@H](C)CO)C(=O)Cc2cc(NC(=O)C3CC3)ccc2O[C@@H]1CN(C)Cc1ccc2c(c1)OCO2	-1	4[16.7 µM]

Among those listed so far, these have a cyano group:
SMILES	UUG fidelity	HIV Env fusion
C[C@@H]1CN([C@@H](C)CO)S(=O)(=O)c2ccc(-c3cccc(C#N)c3)cc2O[C@H]1CN(C)C(=O)c1ccc(F)cc1	9	-2[16.7 µM]
C[C@@H]1CN([C@H](C)CO)C(=O)c2cc(-c3ccc(C#N)cc3)cnc2O[C@@H]1CN(C)C(=O)Nc1ccc(F)cc1	22	-9[16.7 µM]
